gsp antagonist = qHTS for Antagonists of gsp, the Etiologic Mutation Responsible for Fibrous Dysplasia/McCune-Albright Syndrome: qHTS. Potency, µM (doses to about 76.9 µM), without a hit: at the highest dose activity change, negative = inhibition, usual class: inhibitors. AID 624288, 2012. gsp-mutant cells, cAMP HTRF, 30 min; control for the full effect not named in the record. actives 0.4% (n = 340,000); active = falling curve of any shape with a large fitted effect; inconclusive = falling curve, mostly with a smaller effect; inactive = flat or rising curve; cell line not stated here;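 further: intracellular cAMP measured with PDE inhibitor Ro 20-1724 present during compound exposure; potency means the concentration at half of the fitted maximal effect; on the % scale 0 is the no-effect control and ±100 the full control effect; nearly all actives have a fitted effect of over 65% in size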
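Measurement of cellular cAMP by homogeneous time-resolved fluorescence following a 30 min compound exposure at 37C. The PDE inhibitor […] was present throughout; the assay buffer was DPBS with 0.05% BSA and 0.005% Tween 20.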
gsp ag = qHTS for Agonist of gsp, the Etiologic Mutation Responsible for Fibrous Dysplasia/McCune-Albright Syndrome: qHTS. gsp mutant cells, cAMP HTRF, 30 min; control for the full effect not named in the record. actives 0.13% (n = 340,000). Potency, µM (titrated, usually from 76.9 µM), without a hit: at the highest dose activation (cAMP increase), hits mostly activators; active = well fitted activation curve with a large enough effect; inconclusive = small, poorly fitted or top-dose-only effect, or another doubt; inactive = no such curve, though single readings can be large or run the other way; cell line not stated here;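 further: phosphodiesterase inhibitor Ro 20-1724 added with compounds to block cAMP breakdown; potency means the concentration at half of the fitted maximal effect; nearly all actives have a fitted effect of over 60% in size; about a fifth of the inactives were tested at one dose only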
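Cells in DMEM/10% FBS with G418 were pretreated with compounds in DMSO plus […] (300 uM stock) for 30 min at 37C. cAMP was measured by HTRF (cAMP-d2 plus anti-cAMP antibody-K) after 30 min at room temperature.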
CtBP-E1A inh = qHTS Assay for Inhibitors of the CtBP/E1A Interaction. actives 0.49% (n = 340,000). activity change, % (no concentration beside the values). AlphaScreen GST-E1A/His-CtBP binding, 1536-well; stronger effect = lower value; control for the full effect not named in the record; in the data active means activity change below about -65%; inconclusive means about -30% to -65%; inactive means above about -30%; further: on the % scale 0 is the no-effect control and ±100 the full control effect; compound concentration not given in the record
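GST-E1A and His-tagged CtBP (125 nM each as 5X stock) were preincubated with pin-transferred compound for 2 h at 37 °C in the dark, then glutathione donor and nickel acceptor beads were added for 1 h before AlphaScreen reading.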
D2 PAM = Beta-Arrestin HTS for Positive Allosteric Modulators of the Human D2 Dopamine Receptor: Potentiators; DiscoveRx D2 beta-arrestin cells, luminescence, 90 min; 100% = 57 uM dopamine signal; potentiation, % (concentration not given with the values); actives 0.23% (n = 360,000); active = potentiation of 50% or more; inconclusive = 30% to 50%; inactive = 30% or less;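 further: compound concentration not given in the record; tested on top of an EC20 dose of dopamine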
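PathHunter D2 cells, attached overnight at 37 deg C, received compound in DMSO plus dopamine at EC20 (50 nM final) for 90 min at 37 deg C. Beta-arrestin recruitment was read as luminescence after 1 h with detection reagent at ambient temperature.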
D2 ag = Beta-Arrestin HTS for Positive Allosteric Modulators of the Human D2 Dopamine Receptor: Agonists; D(2) dopamine receptor (Homo sapiens), P14416; DiscoveRx PathHunter D2 beta-arrestin, luminescence, 90 min; 100% = 57 uM dopamine signal; activation, % (concentration not given with the values); actives 0.084% (n = 360,000); in the data active = activation above about 40%; inconclusive = about 15% to 40%; inactive = below about 15%; further: compound concentration not given in the record; the text of the record calls up to 30% inactive
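DiscoveRx PathHunter D2 beta-arrestin cells (2,100/well) attached overnight, then compound-stimulated 90 min at 37 C in HBSS/10 mM HEPES/0.1% Tween-20 buffer; beta-galactosidase complementation read by luminescence after 1 h at ambient temperature. Dopamine 57 uM final (EC100) as control.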
Six1-Eya2 blk = qHTS Assay for Inhibitors of the Six1/Eya2 Interaction; Homeobox protein SIX1 (Homo sapiens) + Protein phosphatase EYA2 (Homo sapiens), …; AlphaScreen GST-Six1/His-Eya2 binding, biochemical; stronger effect = lower value; control for the full effect not named in the record; activity change, % (test concentration not listed); actives 0.56% (n = 360,000); in the data active = activity change below about -65%; inconclusive = about -30% to -65%; inactive = above about -30%; further: on the % scale 0 is the no-effect control and ±100 the full control effect; compound concentration not given in the record
Target sequence (O00167 whole entry, looked up): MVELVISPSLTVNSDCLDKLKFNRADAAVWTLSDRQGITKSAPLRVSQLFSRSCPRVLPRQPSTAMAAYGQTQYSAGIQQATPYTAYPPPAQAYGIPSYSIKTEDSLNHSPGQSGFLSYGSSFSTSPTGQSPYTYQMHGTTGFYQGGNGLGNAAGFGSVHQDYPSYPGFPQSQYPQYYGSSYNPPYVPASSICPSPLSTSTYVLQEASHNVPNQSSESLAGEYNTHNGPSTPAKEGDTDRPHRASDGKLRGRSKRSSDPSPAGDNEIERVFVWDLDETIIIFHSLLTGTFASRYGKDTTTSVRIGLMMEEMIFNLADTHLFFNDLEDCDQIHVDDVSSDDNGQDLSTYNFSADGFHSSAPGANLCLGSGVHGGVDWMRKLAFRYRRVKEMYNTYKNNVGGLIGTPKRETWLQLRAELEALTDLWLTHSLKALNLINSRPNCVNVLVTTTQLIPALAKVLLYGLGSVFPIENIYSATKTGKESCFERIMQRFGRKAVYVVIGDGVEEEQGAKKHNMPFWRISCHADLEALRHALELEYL
Target sequence (Q15475 whole entry, looked up): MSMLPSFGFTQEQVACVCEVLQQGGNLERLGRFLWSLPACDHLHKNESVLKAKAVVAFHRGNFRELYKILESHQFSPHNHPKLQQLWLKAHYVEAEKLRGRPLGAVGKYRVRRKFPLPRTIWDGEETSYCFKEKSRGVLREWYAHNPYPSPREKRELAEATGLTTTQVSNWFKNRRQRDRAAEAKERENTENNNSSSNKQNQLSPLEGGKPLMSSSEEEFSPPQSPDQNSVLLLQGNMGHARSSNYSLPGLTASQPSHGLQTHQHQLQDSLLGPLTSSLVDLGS
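Homogeneous AlphaScreen proximity assay pairing GST-Six1 with His-tagged Eya2 (added as 5X mix: 250 nM and 500 nM) in 50 mM Tris pH 8.0, 300 mM NaCl, 1 mM TCEP. Glutathione donor and nickel acceptor beads; 1 h, 37 °C, dark.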
* = called active by the depositor; ? = inconclusive; / = not tested or not shown; [ ] = another dose, or the depositor's remark.

Labels used below – A = gsp antagonist; B = gsp ag; C = CtBP-E1A inh; D = D2 PAM; E = D2 ag; F = Six1-Eya2 blk
> CCOc1ccc(C(=O)OCn2nnc3ccccc3c2=O)cc1OC
  A = 6%; B = -5%; C = 0; D = -3; E = -0.8; F = 2
> Cc1cccc(Oc2ncc(-c3ccc(Cl)cc3)cn2)c1
  A = 58%[activator]; B = -13%; C = -1; D = 5; E = 0.3; F = 9
> Cc1cc(NC(=O)CS(=O)(=O)c2cn(C)c3ccccc23)no1
  A = 3%; B = -12%; C = 1; D = -4; E = -1.6; F = 3
> COc1ccc(CCNC(=O)COC(=O)c2ccc(Br)o2)cc1OC
  A = -5%; B = 15%; C = 1; D = -1; E = -3.9; F = -1
> O=C(CSc1nc2c(sc3ccccc32)c(=O)n1CCCN1CCCC1)NCc1ccco1
  A = -67%; B = 25%[15.4 µM]; C = 1; D = -6; E = -1.4; F = -1
> C=CCOn1c(=O)c(-c2ccc(OCC)cc2)[n+]([O-])c2ccccc21
  A = -1%; B = -5%[15.4 µM]; C = 10; D = -1; E = 2.7; F = 4
> Cc1ccc(Cn2nnc3c(=O)n(CC(=O)N4CCCCC4)cnc32)cc1
  A = 9%; B = -12%; C = 4; D = 3; E = -1.7; F = 2
> C/C(CC(=O)Nc1ccc(N(C)C)cc1)=N\NC(=O)c1cnccn1
  A = ?; B = 1%; C = -24; D = 10; E = -5.0; F = -12
> Cc1cc(Nc2ccc(F)cc2F)n2ncnc2n1
  A = 6%; B = 3%; C = 6; D = -2; E = -2.5; F = -5
> CCNc1c([N+](=O)[O-])c(=O)oc2ccccc12
  A = 1%; B = 8%; C = 4; D = -6; E = -1.0; F = -4
> O=C(NC1(N2CCOCC2)CC1)c1ccc(Cl)cc1
  A = 5%; B = -1%; C = /; D = -10; E = 1.4; F = -2
> CCN(CC)CCN1C(=O)C(=O)/C(=C(/O)c2ccc3c(c2)CC(C)O3)C1c1ccc(OC)cc1 (stereo not given)
  A = 7%; B = 4%; C = -1; D = -9; E = -8.4; F = 25
> O=C(NCCc1nnc2ccc(NCc3ccc(Cl)cc3)nn12)c1ccccc1
  A = 18%; B = 2%[15.4 µM]; C = -5; D = 5; E = -4.1; F = -12
> Cn1ccnc1C(=O)c1ccc(Cl)c(S(=O)(=O)N2CCOCC2)c1
  A = -7%; B = -13%[15.4 µM]; C = -8; D = -1; E = -2.1; F = -2
> Cc1cccc(NC(=O)CC2SC(=O)N(c3ccccc3)C2=O)c1 (stereo not given)
  A = -2%; B = -50%[inhibitor]; C = 11; D = -12; E = -12; F = 6
> NS(=O)(=O)c1ccc(S(=O)(=O)N(CCc2ccccc2)Cc2ccccn2)cc1
  A = -11%; B = -16%; C = -6; D = -3; E = -1.4; F = 2
> Cc1ccc(C(=O)NCCN2CCOCC2)cc1
  A = 1%; B = 10%; C = 0; D = -25; E = -2.7; F = 2
> COc1ccc(N2CCN(c3oc(-c4ccco4)nc3C#N)CC2)cc1
  A = 3%; B = -55%; C = ?; D = -28; E = -2.9; F = ?
> CC1(C)CC(=O)c2cc(C(=O)NC3CCSC3=O)c(=O)n(-c3ccccc3)c2C1 (stereo not given)
  A = -25%; B = -9%; C = -1; D = -9; E = -4.0; F = -1
> O=C(NC(=S)Nc1ccccc1N1CCCC1)c1ccc([N+](=O)[O-])cc1
  A = -18%; B = 2%; C = 32; D = -30; E = -3.6; F = ?
> Cc1cc(C)c(NC(=O)CNC(=O)CSc2nnc(N)s2)c(C)c1
  A = 8%; B = 17%[15.4 µM]; C = 9; D = -1; E = 1.7; F = 6
> Cc1ccc(OCC(=O)NCCCNC(=O)c2ccco2)cc1
  A = 8%; B = 16%; C = 1; D = -1; E = 1.9; F = -3
> Cc1noc(C)c1S(=O)(=O)Nc1ccc2c(c1)C(=O)N([C@H](C)CO)C[C@H](C)[C@@H](CN(C)C(=O)Nc1ccc(C(F)(F)F)cc1)O2
  A = -1%; B = /; C = -13; D = /; E = -1.1; F = -1
> CC(=O)Nc1ccc(C(=O)NCC(=O)OCc2ccccc2F)cc1
  A = 3%; B = 20%; C = 2; D = 0; E = 0.4; F = -1
> CCC(=O)N1CCC2(CC1)Oc1ccc(F)cc1C(=O)C21CC(c2cccnc2)=NO1 (stereo not given)
  A = -5%; B = 2%; C = 41; D = -6; E = 2.5; F = 30
> O=C(CCNc1cccc(F)c1)c1cc2ccccc2o1
  A = 0%; B = 15%; C = -5; D = -4; E = -1.9; F = -4
> CC(=O)Nc1ccc(CN2CCN(CC=C(C)C)C(CCO)C2)cc1 (stereo not given)
  A = 8%; B = -9%; C = 6; D = -11; E = -2.2; F = 2
> CCC(C)NC(=O)c1cnn2c1NC(c1ccc3c(c1)OCO3)CC2C(F)(F)F (stereo not given)
  A = -2%; B = -33%[inhibitor]; C = 1; D = -1; E = -2.5; F = -1
> CC(C)c1ccc(CC(=O)N2CCC2(C)C(=O)Nc2ccc3c(c2)OCO3)cc1 (stereo not given)
  A = /; B = /; C = -8; D = -2; E = 5.0; F = -12
> Cc1nc(N)nc(Nc2ccc(Cl)cc2)c1Br
  A = -17%; B = -6%; C = -7; D = -18; E = -2.1; F = 3

In another format: 2 of the compounds above
structure	gsp antagonist	gsp ag	CtBP-E1A inh	D2 PAM	D2 ag	Six1-Eya2 blk
CCC(C)NC(=O)c1cnn2c1NC(c1ccc3c(c1)OCO3)CC2C(F)(F)F (stereo not given)	-2%	-33%[inhibitor]	1	-1	-2.5	-1
CC(C)c1ccc(CC(=O)N2CCC2(C)C(=O)Nc2ccc3c(c2)OCO3)cc1 (stereo not given)	/	/	-8	-2	5.0	-12

Going on with the list.
Labels used below – A = gsp antagonist; B = gsp ag; C = CtBP-E1A inh; D = D2 PAM; E = D2 ag; F = Six1-Eya2 blk
> COc1cc2c(cc1OC)C(=O)N(C)CC2
  A = 11%; B = /; C = 0; D = -20; E = -1.3; F = 0
> O=C(Nc1c2c(nn1-c1ccc(Cl)cc1)CS(=O)(=O)C2)c1ccccc1
  A = -17%; B = 13%[15.4 µM]; C = -2; D = -21; E = -3.7; F = -4
> C=CCn1c(SCC(=O)N2CCOCC2)nc2sc(C)c(C)c2c1=O
  A = 3%; B = -1%; C = 17; D = -4; E = 1.3; F = 26
> OC(c1ccc(F)c(F)c1)c1ncc(-c2ccccc2F)[nH]1 (stereo not given)
  A = /; B = /; C = -5; D = -6; E = -5.4; F = 2
> CCOC(=O)c1c(NC(=O)C(Sc2ccccc2)c2ccccc2)sc(C(N)=O)c1C (stereo not given)
  A = 9%; B = -5%; C = -10; D = 6; E = -2.4; F = -11
> Cc1nnc(SCC(=O)NC(=O)NCc2ccco2)n1Cc1ccccc1
  A = 3%; B = 16%; C = 0; D = -11; E = -1.7; F = -1
> CCCCN(C(=O)c1cc(=O)[nH]c2ccccc12)c1c(N)n(CCCC)c(=O)[nH]c1=O
  A = 4%; B = 24%; C = -6; D = 5; E = 0.7; F = 5
> CCCn1nnnc1NCc1ccc(OC)cc1
  A = -5%; B = -35%[inhibitor]; C = /; D = -16; E = 2.2; F = -1
> O=C(c1cccc(F)c1)N1CCN(C2CCCCC2)CC1
  A = 4%; B = -12%; C = 9; D = -2; E = -0.5; F = 4
> Cc1ccc(C(=O)NC(Cc2ccc(C(C)(C)C)cc2)C(=O)O)cc1 (stereo not given)
  A = 9%; B = /; C = -23; D = /; E = 0.2; F = 0
> CC(=O)c1ccc(N2CCN(CC(O)COC(c3ccccc3)c3ccccc3)CC2)cc1 (stereo not given)
  A = -20%; B = ?; C = -8; D = -12; E = -0.9; F = -27
> OCC1(CCOc2ccccc2)CCN(Cc2ccc3cccc(F)c3n2)CC1
  A = 4%; B = -15%[15.4 µM]; C = -13; D = -14; E = -4.1; F = -10
> COc1ccc(CN(C(=O)c2cccs2)C(C(=O)NC2CCCCC2)c2ccc3ncccc3c2)cc1 (stereo not given)
  A = -21%; B = -32%; C = -16; D = -19; E = 2.2; F = 0
> CC(C)C(=O)Nc1cccc(C(=O)NCc2ccc(S(N)(=O)=O)cc2)c1
  A = 4%; B = 24%; C = 9; D = -1; E = -3.3; F = 0
> Cn1c(C(=O)NCc2cccnc2)cc2sc(Cl)cc21
  A = 13%; B = ?; C = 1; D = -5; E = -1.7; F = -4
> Cc1ccc(/C=C2\SC(=S)N(C(Cc3ccccc3)C(=O)O)C2=O)cc1 (stereo not given)
  A = -5%; B = 4%; C = -2; D = 25; E = -1.1; F = -10
> COc1ccc(NC(=O)CSc2nnc(-c3ccccc3)n2Cc2ccco2)c(OC)c1
  A = -1%; B = 6%; C = -5; D = 6; E = -5.3; F = -9
> CCCNC(=O)/C(C#N)=C1\N=C(NC(=O)c2ccco2)c2ccccc21
  A = ?; B = 21%; C = -18; D = -8; E = -5.6; F = -5
> Cc1ccccc1NC(=O)Cc1nc(COC(=O)CSc2ccccc2)cs1
  A = 10%; B = 6%[15.4 µM]; C = 7; D = -3; E = -1.1; F = 2
> c1ccc2c(c1)CCN(CCCNc1nc3ccccc3n3cnnc13)C2
  A = 2%; B = ?; C = -8; D = -10; E = -7.3; F = -12
> CC(OC(=O)c1ccc2c(c1)S(=O)(=O)c1ccccc1C2=O)C(N)=O (stereo not given)
  A = 6%; B = ?; C = -1; D = 23; E = 12; F = 3
> Clc1ccc(Nc2ccc(Cl)nn2)cc1
  A = 6%; B = 19%[15.4 µM]; C = 10; D = -2; E = -0.4; F = 4
> CC(NC(=O)CSc1ccccc1)c1ccccc1 (stereo not given)
  A = 6%; B = -1%; C = 9; D = -2; E = -1.2; F = 2
> CC(=O)N1CCOc2ccc(S(=O)(=O)N(C)c3cccc(C)c3)cc21
  A = -8%; B = 4%; C = /; D = -7; E = 0.9; F = -4
> c1ccc(-c2ccc(-c3nc(-c4ccccn4)no3)cc2)cc1
  A = -24%; B = -2%; C = 4; D = 0; E = 2.0; F = 5
> CC(=O)Nc1cc(-c2cccc(F)c2)cn2c(-c3ccc(F)c(Cl)c3)cnc12
  A = /; B = /; C = -15; D = 3; E = 4.4; F = -3
> O=C(COC(=O)c1nc(Cl)ccc1Cl)NCc1ccccc1
  A = 2%; B = 26%[15.4 µM]; C = 1; D = -6; E = -4.0; F = 10
> O=C(NCc1ccccc1)c1cc(C2COCCN2C(=O)C2CC2)on1 (stereo not given)
  A = /; B = /; C = -8; D = -6; E = -6.1; F = 14
> O=C(CCN1C(=O)/C(=C/C=C/c2ccccc2)SC1=S)Nc1cccnc1
  A = 16%; B = 25%; C = 2; D = 6; E = 1.9; F = 4

From PubChem

An unsorted share of the library. Share with any hit: about 1.4%.
